Screening results from PubChem.
KCNQ2 block: KCNQ2 potassium channel inhibitors, primary screen, cell-based, CHO-K1, FluxOR thallium flux, B-score (AID 2156) | 20 min; stronger effect = lower value; only compounds with negative scores are shown here; some inactives read as strong as hits | B-score at 10 µM | 310,000 tested, 1.1% active;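 active = fluorescence ratio B-score at most minus 3 library SDs, with starting brightness B-score within 2 library SDs, cut at about -5.5 in these data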
Target sequence (O88943 whole entry, looked up): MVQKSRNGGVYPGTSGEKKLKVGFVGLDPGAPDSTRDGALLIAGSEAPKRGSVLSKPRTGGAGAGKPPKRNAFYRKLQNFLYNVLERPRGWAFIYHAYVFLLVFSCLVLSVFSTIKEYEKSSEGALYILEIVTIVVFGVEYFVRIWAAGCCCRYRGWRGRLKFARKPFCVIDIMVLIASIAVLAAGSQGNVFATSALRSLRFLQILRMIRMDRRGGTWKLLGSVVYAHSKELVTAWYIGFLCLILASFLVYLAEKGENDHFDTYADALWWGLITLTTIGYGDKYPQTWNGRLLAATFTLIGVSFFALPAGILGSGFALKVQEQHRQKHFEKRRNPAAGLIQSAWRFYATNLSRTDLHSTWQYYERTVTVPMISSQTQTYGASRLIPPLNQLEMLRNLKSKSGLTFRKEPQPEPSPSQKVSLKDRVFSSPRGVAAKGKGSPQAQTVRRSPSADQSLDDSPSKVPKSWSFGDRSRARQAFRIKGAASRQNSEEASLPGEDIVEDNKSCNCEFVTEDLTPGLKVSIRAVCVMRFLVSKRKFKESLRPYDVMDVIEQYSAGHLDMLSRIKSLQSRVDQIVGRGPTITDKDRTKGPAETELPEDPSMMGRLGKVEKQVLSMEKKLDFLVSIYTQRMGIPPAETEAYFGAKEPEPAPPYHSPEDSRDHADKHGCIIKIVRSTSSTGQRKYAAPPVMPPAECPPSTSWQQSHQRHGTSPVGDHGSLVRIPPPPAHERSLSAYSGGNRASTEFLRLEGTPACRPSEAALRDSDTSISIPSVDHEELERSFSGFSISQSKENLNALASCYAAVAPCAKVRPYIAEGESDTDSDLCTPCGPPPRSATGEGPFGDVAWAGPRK
KCNQ2 block baseline: recorded beside KCNQ2 block, whose call it bears; B-score; measured here: initial fluorescence intensity artifact check;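 brightness before thallium and not channel activity; 0 = typical well and far values either way flag optical interference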
The depositor's hits bear a star; i = inactive. Some of the compounds tested; count on the stated rates, not on these rows.

KCNQ2 block	KCNQ2 block baseline	smiles
i	0.9	CCCN(CC(=O)Nc1ccccc1OC)C(=O)CCCN1C(=O)c2ccccc2C1=O
i	-2.5	CCC1Nc2ncnc(N3CCN(c4ccccc4)CC3)c2N(Cc2ccc(Br)cc2)C1=O (stereo unspecified)
i	1.5	COc1ccc([C@@H]2[C@@H]3C(=O)N(C(C)(C)C)C(=O)[C@@H]3[C@]3(CC(C)C)C(=O)N(c4cccc(Br)c4)C(=O)N23)cc1
i	0.02	COc1ccc(/C=C/C(=O)N2CCN(C)CC2)cc1S(=O)(=O)N1CCCCC1
i	-0.37	CC(=O)N[C@@H](Cc1c[nH]c2ccccc12)C(=O)OCC(=O)NCc1ccc2c(c1)OCO2
i	0.13	CCSc1nnc(NC(=O)c2ccc3c(c2)OCO3)s1
i	0.89	CCCOc1ccc(Oc2cc(C)nc(SC)n2)nn1
i	0.49	Cc1ccc(S(=O)(=O)N2CCOCC2)cc1C(=O)NC1CCCC(C)C1C (stereo unspecified)
i	1.2	CC(CCc1ccccc1)NC(=O)c1ccccc1F (stereo unspecified)
i	1.5	COc1ccccc1N1C(=O)C(Cl)=C(Nc2ccccc2O)C1=O
i	2.9	CC(Oc1ccccc1)C(=O)Nc1ccc(S(=O)(=O)NCC2CCCO2)cc1 (stereo unspecified)
i	-0.15	CCOC(=O)c1c(NC(=O)OC)sc(C(=O)N(CC)CC)c1C
i	-0.12	COc1ccc(CCNC(=O)CCc2ccc(OC)cc2)cc1
i	-0.4	CC1CCCCN1CCNC(=O)CCc1nnc2n(Cc3ccccc3)c(=O)c3ccccc3n12 (stereo unspecified)
i	-2.3	CCc1nnc(NC(=O)CSc2nncc(=O)n2N)s1
i	-0.12	C[C@H](NC(=O)c1[nH]cnc1C(=O)Nc1ccc(CNC(=O)OC(C)(C)C)cc1)C(=O)OC(C)(C)C
i	0.38	COc1cc2c(cc1NC(=O)c1cc(-c3ccccn3)nc3ccccc13)oc1ccccc12
i	1.4	Cc1ccccc1OCCNc1ccc(C(F)(F)F)cc1[N+](=O)[O-]
i	0.04	Cc1cc(=O)c2ccccc2n1CC(=O)NCc1ccccc1
i	-0.35	Clc1ccc(-c2cc(COc3ccccc3)no2)cc1Cl
i	0.29	S=C(NC1CCCCC1)N(CCc1ccccc1)CCc1ccccc1
i	1.9	O=C(CN1C(=O)CCC1=O)Nc1cccc(NC(=O)CN2C(=O)CCC2=O)c1
i	0.56	C/C(=N\Nc1ccc(Cl)c(C(=O)O)c1)c1cccs1
i	0.62	S=C1NNC2(NN1)C1CC3CC(C1)CC2C3
i	-0.85	C/C(=N\O)C(C)(C)Nc1ccc(Cl)cc1
i	0.05	Cn1c2ccccc2c2c(C(=O)N3CCN(c4ccccn4)CC3)cn(C3CCCC3)c(=O)c21
i	-0.17	CCCn1c(SCC(=O)NC(C)(C)C)nnc1C(C)C
i	1.1	CCC(OC(=O)C1=Cc2ccccc2OC1)C(=O)NCc1ccco1 (stereo unspecified)
i	0.1	CN(C)c1ccc(/C=N/NC(=O)c2ccc3c(c2)OCCO3)cc1
i	-1.6	CCc1nn2cc(C(=O)c3ccccc3O)cnc2c1-c1ccc(F)cc1
i	0.93	O=C(CCCc1nc2ccccc2s1)Nc1ccccc1
i	2.9	CCOc1ccc(C(=O)Nc2ccc(NC(=O)c3ccccc3)cc2)cc1Br
i	8	CCOc1ccc(N(CC(=O)NCCc2ccc(OC)cc2)S(C)(=O)=O)cc1
i	-0.1	COc1ccccc1C(=O)NNC(=O)c1cccc(F)c1
i	2.5	O=C(c1cc([N+](=O)[O-])ccc1Cl)N1CCc2ccccc21
i	-1.3	CSc1cccc(CN2CCC(Oc3cccc(C(=O)N4CCCC4)c3)CC2)c1

Ordered by length of the SMILES (lowest first): some entries from above
KCNQ2 block	KCNQ2 block baseline	smiles
i	-0.12	COc1ccc(CCNC(=O)CCc2ccc(OC)cc2)cc1
i	2.9	CCOc1ccc(C(=O)Nc2ccc(NC(=O)c3ccccc3)cc2)cc1Br
i	0.02	COc1ccc(/C=C/C(=O)N2CCN(C)CC2)cc1S(=O)(=O)N1CCCCC1
i	-2.5	CCC1Nc2ncnc(N3CCN(c4ccccc4)CC3)c2N(Cc2ccc(Br)cc2)C1=O (stereo unspecified)

(further entries)
KCNQ2 block	KCNQ2 block baseline	smiles
i	1	O=S(=O)(CCN1CCOCC1)c1ccc(Oc2ccc(S(=O)(=O)CCN3CCOCC3)cc2)cc1
i	-0.02	CCc1ccc(NC(=O)CCn2cccc2)cc1
i	0.04	COc1ccc(/C=C2\SC(=O)N(CC(=O)N(C)C3CCS(=O)(=O)C3)C2=O)cc1 (stereo unspecified)
i	0.02	CCN1CC(c2ccccc2)C(c2ccc(Cl)cc2)=N1 (stereo unspecified)
i	-1.8	Cc1ccc(NC(=O)C2CCCN2C(=O)Oc2ccccc2)c(C)c1 (stereo unspecified)
i	1.3	CC(=O)Nc1ccc(S(=O)(=O)N(Cc2ccccc2)c2ccccn2)cc1
i	-0.6	N#Cc1ccc(NC(=O)Cn2cnc(S(=O)(=O)N3CCOCC3)c2)cc1
i	-1.1	O=[N+]([O-])c1ccc(SCCc2ccccn2)cc1
i	0.88	CC1CCN(c2nncc3ccccc23)CC1
i	-0.08	CC1CCCN(C(C(=O)NC2CCCCC2)c2cc3c(cc2[N+](=O)[O-])OCO3)C1 (stereo unspecified)
i	1	O=[N+]([O-])c1cccc(-c2ccc(CN3CCN(c4ccccc4)CC3)o2)c1
i	-0.39	COCCNC(=O)CCCn1c(=O)c2cc(OC)c(OC)cc2n(CC(=O)Nc2ccc(F)cc2)c1=O
i	-0.02	O=C1C(Cc2ccccc2)Nc2ncnc(N3CCc4ccccc4C3)c2N1Cc1ccc(Cl)cc1 (stereo unspecified)
i	0.73	CC(=O)c1ccc([N+](=O)[O-])c(CS(=O)(=O)c2ccccc2)c1
i	0.38	O=[N+]([O-])c1ncccc1OCc1ccc(Cl)c(Cl)c1
i	-0.09	Cc1c(C(=O)OCC(=O)N2C(C)CCCC2C)oc2ccccc12 (stereo unspecified)
i	-0.7	NC(=O)c1ccccc1NC(=O)COc1ccc2c(c1)OCO2
i	-1.1	CCN(CC)S(=O)(=O)c1cc(C(=O)Oc2ccccc2OC)ccc1OC
i	0.21	COc1ccc(CCNC(=O)CCCCCn2c(SCC(N)=O)nc3cc4c(cc3c2=O)OCO4)cc1OC
i	0.23	O=C1NC2(CCCCCCC2)C(=O)N1Cc1ccc(F)cc1
i	-2.4	COC(=O)c1ccccc1NC(=O)CSc1nncn1C
i	0.1	O=C(c1ccc(Cl)c(Cl)c1)N1CCC(=O)N(C(COCc2cccc(C(F)(F)F)c2)Cc2ccccc2)CC1 (stereo unspecified)
i	0.36	COc1ccc(C2=NCCn3cccc32)c(OC)c1
i	0.87	CCCCOc1ccc(N2C(=O)CC(NCc3ccncc3)C2=O)cc1 (stereo unspecified)
i	-0.07	COCC(C)NC(=O)c1cc(-c2cccc(OC)c2)on1 (stereo unspecified)
i	0.31	COC(=O)c1ccc(CNC(=O)c2ccc(OCC(=O)N3CCOCC3)c(OC)c2)cc1
i	0.22	Cc1ccc(-n2cc(CN3CCC(CO)(Cc4ccccc4)CC3)cn2)cc1
i	0.94	Cn1c(=O)n(C)c2cc(NS(=O)(=O)c3ccc(C(C)(C)C)cc3)ccc21
i	-0.73	COc1cc(C2C(=O)N(C3CCCC3)CC(=O)N2Cc2ccco2)ccc1OC(C)C (stereo unspecified)
i	2.8	CN1/C(=C\C=C2/SC(=S)NC2=O)C(C)(C)c2ccccc21
i	-0.77	COC(=O)c1sccc1NC(=O)Cc1ccc(Br)cc1
i	0.05	O=C(NCCCN1CCOCC1)c1c(F)cccc1F
i	-0.8	CCOC(=O)c1c(NC(=O)c2ccc(Br)o2)sc(C)c1CC
i	-1.2	CC1CN(CC(=O)NC(C)c2ccccc2)CC(C)O1 (stereo unspecified)
i	-0.12	Cc1cccc(C)c1OCC(=O)N/N=C/C=C/c1ccco1
i	0.75	CC(C)Oc1c(N2CCOCC2)c(=O)c1=O
i	3	Cc1c(NC(=O)Cc2cccs2)cccc1[N+](=O)[O-]
i	-0.13	O/N=C\c1ccccc1Oc1ccc(F)cc1
i	-1.4	Cc1cc(OCC(=O)NCCN2CCOCC2)ccc1Br
i	1.7	COCCCNc1nc2ccccc2nc1NS(=O)(=O)c1ccc(C)c(C)c1
i	0.03	CSc1ccc(Cl)c(C(=O)OCC(=O)N2CC(C)OC(C)C2)c1 (stereo unspecified)
i	-0.55	NC(=O)CCc1nc2cc(C(F)(F)F)ccc2n(Cc2ccccc2)c1=O
i	0.33	CCOc1ccc(C(=O)N/N=C/c2c(C)[nH]c(=O)[nH]c2=O)cc1
i	-1.4	O=C(NC1=NCCS1)c1ccc(Cl)c(S(=O)(=O)N2CCc3ccccc32)c1
i	0.52	CN(C)c1ccc(NC(=O)C(=O)C2C(=O)Nc3ccccc32)cc1 (stereo unspecified)
i	0.8	Cc1cc(Br)c(NC(=O)c2c(-c3c(Cl)cccc3Cl)noc2C)c(Br)c1
i	-0.16	Cc1cc(N/N=C/c2ccccc2O)nc(-c2ccccc2O)n1
i	-0.09	COCCCn1c(SCC(=O)Nc2ccc(C)cc2)nc2ccccc2c1=O
i	-0.05	C[C@@H]1CC=C[C@H]2[C@H]1C(=O)N(Cc1ccccc1)[C@H]2c1ccc(-c2ccc(N(C)C)cc2)cc1F
i	-0.08	Fc1cccc(Cl)c1CSC1=NCCS1
i	0.69	CCOC(=O)c1[nH]c2c(c1-c1ccc(OC)cc1)C(=O)CC(c1ccc(OC)c(OC)c1)C2 (stereo unspecified)
i	-0.25	CCc1ccc(NS(=O)(=O)c2ccc3c(c2)oc(=O)n3C)cc1
i	3.2	COc1ccccc1C(=O)Oc1ccc2c(c1)O/C(=C\c1ccncc1)C2=O
i	-1.4	Cc1ccc(N(Cc2ccc([N+](=O)[O-])cc2)C(=O)c2ccco2)cc1C
i	0.8	CCn1nc(NC(=O)COC)c2cc3cc(C)ccc3nc21
i	-1.7	O=C(N/N=C/c1cc([N+](=O)[O-])ccc1O)c1ccncc1
i	-2.2	CN(CC(=O)Nc1cccnc1)S(=O)(=O)c1ccccc1
i	-0.38	CCCCOC(=O)CSc1nnc(-c2cc(OC)c(OC)c(OC)c2)o1
i	0.28	CN(C)c1ccc(/C=C/C(=O)c2ccccc2O)cc1
i	1.4	Cn1c(=O)[nH]c(=O)c2c1nc(N1CCCC1)n2CCCSc1nnnn1-c1ccccc1

(further entries)
KCNQ2 block	KCNQ2 block baseline	smiles
i	0.4	CCCOC(=O)c1ccc(NS(=O)(=O)c2cccs2)cc1
i	-1.4	CN(C)c1ccc(C(=O)N2CCCC2)cc1
i	2.3	O=C(CSc1nnc(-c2ccccn2)n1-c1ccccc1)Nc1ccc2c(c1)OCO2
i	0.33	O=C1/C(=C\c2ccncc2)CCc2ccccc21
i	0.55	CCOC(=O)C(C#N)C(Cc1ccccc1)c1ccco1 (stereo unspecified)
i	2.3	O=C(CC1SC(N2CCCCC2)=NC1=O)Nc1cccc(C(=O)O)c1 (stereo unspecified)
i	0.14	COc1cc(-c2noc(CCC(=O)Nc3cccnc3)n2)cc(OC)c1OC
i	1.6	COC(CNC(=O)c1cc(S(=O)(=O)N2CCc3ccccc32)ccc1F)OC
i	-0.85	CC(=O)c1cn(CC(=O)Nc2ccc(C)c(C)c2)c2ccccc12
i	0.84	CCOc1ccc(-c2nc(-c3cccs3)c(CC(=O)O)s2)cc1OC
i	0.1	CCC(C(=O)Nc1ccc(C)cc1)c1ccccc1 (stereo unspecified)
i	1	CN(CC(=O)Nc1cccc(F)c1)C(=O)c1ccc(COc2ccccc2)cc1
i	-1.9	Cc1nc(-c2ccccc2)sc1C1(C)CC(c2c(Cl)cccc2Cl)=NO1 (stereo unspecified)
i	-1.2	[O-]/C(=C(\C(=S)Nc1cccc2ccccc12)[n+]1ccccc1)c1cccs1
i	-3.4	CNC(=S)N/N=C(\C)c1ccc(-n2ccnc2)cc1
i	-0.49	O=C(Nc1ccc(S(=O)(=O)N2CCCC2)cc1)c1cnccn1
i	-0.85	COc1ccc(C2C=C(Nc3ccccc3)C(=O)N2c2ccccc2)cc1OC (stereo unspecified)
i	-1.6	C=C(C(=O)O)C1CCC2(C)CCCC(C)(O)C2C1 (stereo unspecified)
i	-1.6	O=C(COc1ccc(S(=O)(=O)N2CCOCC2)cc1)N1CCCCCC1
i	1.7	Cc1[nH]c2ccccc2c1/C=C(\C#N)C(=O)NC1CC1
i	0.03	COc1ccc(C2SCC(=O)N2c2ccc(F)cc2)cc1 (stereo unspecified)
i	0.1	COc1ccc(/C=C/c2nnc(NC(=O)C(C)(C)C)s2)cc1
i	-0.48	Cc1cc2cc(C=C(C#N)C#N)c(Cl)nc2cc1C

Grouped by structure, those above containing a Cl atom (15)
KCNQ2 block	KCNQ2 block baseline	smiles
i	1.5	COc1ccccc1N1C(=O)C(Cl)=C(Nc2ccccc2O)C1=O
i	-0.35	Clc1ccc(-c2cc(COc3ccccc3)no2)cc1Cl
i	0.56	C/C(=N\Nc1ccc(Cl)c(C(=O)O)c1)c1cccs1
i	-0.85	C/C(=N\O)C(C)(C)Nc1ccc(Cl)cc1
i	2.5	O=C(c1cc([N+](=O)[O-])ccc1Cl)N1CCc2ccccc21
i	0.02	CCN1CC(c2ccccc2)C(c2ccc(Cl)cc2)=N1 (stereo unspecified)
i	-0.02	O=C1C(Cc2ccccc2)Nc2ncnc(N3CCc4ccccc4C3)c2N1Cc1ccc(Cl)cc1 (stereo unspecified)
i	0.38	O=[N+]([O-])c1ncccc1OCc1ccc(Cl)c(Cl)c1
i	0.1	O=C(c1ccc(Cl)c(Cl)c1)N1CCC(=O)N(C(COCc2cccc(C(F)(F)F)c2)Cc2ccccc2)CC1 (stereo unspecified)
i	0.03	CSc1ccc(Cl)c(C(=O)OCC(=O)N2CC(C)OC(C)C2)c1 (stereo unspecified)
i	-1.4	O=C(NC1=NCCS1)c1ccc(Cl)c(S(=O)(=O)N2CCc3ccccc32)c1
i	0.8	Cc1cc(Br)c(NC(=O)c2c(-c3c(Cl)cccc3Cl)noc2C)c(Br)c1
i	-0.08	Fc1cccc(Cl)c1CSC1=NCCS1
i	-1.9	Cc1nc(-c2ccccc2)sc1C1(C)CC(c2c(Cl)cccc2Cl)=NO1 (stereo unspecified)
i	-0.48	Cc1cc2cc(C=C(C#N)C#N)c(Cl)nc2cc1C
